KCNQ2 pot: enhances the rat KCNQ2 potassium channel | CHO-K1 KCNQ2, FluxOR thallium flux fluorescence; stronger effect = higher value | B-score at 10 µM | actives 0.54% (n = 310,000) | AID 2239;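 active = fluorescence ratio B-score at least 3 SD of library B-scores, with initial fluorescence B-score within 3 SD, cut at about 5.3 in these data; same plate scores as AID 2156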;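 note: B-score of peak minus minimum over baseline fluorescence ratio after K+ and Tl+ stimulus; positive B-score means potentiation of KCNQ2 with more thallium influx and brighter signal; only the inactives scoring about 0 or higher are listed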
Target sequence (O88943 whole entry, looked up): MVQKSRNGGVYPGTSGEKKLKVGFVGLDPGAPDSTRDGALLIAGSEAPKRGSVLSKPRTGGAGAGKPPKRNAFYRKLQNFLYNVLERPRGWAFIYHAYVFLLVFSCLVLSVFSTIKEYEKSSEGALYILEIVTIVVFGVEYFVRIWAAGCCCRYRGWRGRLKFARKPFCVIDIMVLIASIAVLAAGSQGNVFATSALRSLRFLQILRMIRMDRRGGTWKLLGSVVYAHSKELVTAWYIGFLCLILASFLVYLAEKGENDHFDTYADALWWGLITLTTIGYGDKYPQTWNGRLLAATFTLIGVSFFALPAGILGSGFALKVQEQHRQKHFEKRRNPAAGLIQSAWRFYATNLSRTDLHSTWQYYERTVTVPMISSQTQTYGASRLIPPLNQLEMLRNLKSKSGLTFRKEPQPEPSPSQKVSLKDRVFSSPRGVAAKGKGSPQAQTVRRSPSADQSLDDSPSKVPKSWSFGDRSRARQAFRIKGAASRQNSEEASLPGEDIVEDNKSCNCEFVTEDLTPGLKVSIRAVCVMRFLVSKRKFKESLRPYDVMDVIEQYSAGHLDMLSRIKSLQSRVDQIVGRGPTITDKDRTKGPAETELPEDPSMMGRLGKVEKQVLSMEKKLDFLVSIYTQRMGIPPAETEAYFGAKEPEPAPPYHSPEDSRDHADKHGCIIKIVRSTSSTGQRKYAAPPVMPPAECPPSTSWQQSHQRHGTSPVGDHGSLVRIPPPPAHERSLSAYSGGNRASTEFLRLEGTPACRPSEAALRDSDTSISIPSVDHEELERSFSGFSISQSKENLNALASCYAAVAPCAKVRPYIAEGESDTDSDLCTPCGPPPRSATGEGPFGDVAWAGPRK
KCNQ2 pot baseline: second read-out of KCNQ2 pot, no call of its own (marks repeat the call); B-score; compound at 10 µM; measured here: initial fluorescence intensity artifact check;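 brightness before thallium and not channel activity; 0 = typical well and far values either way flag optical interference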
The depositor's hits bear a star. Not all compounds are listed; rates above refer to the full screens.

SMILES	KCNQ2 pot	KCNQ2 pot baseline
CCCCc1ccc(CC(=O)O)cc1	2	-1.2
O=C(NNS(=O)(=O)c1ccc(Br)cc1)c1cccs1	0.01	2.1
O=C(NCC(c1ccco1)N1CCCC1)c1ccc(Cl)cc1 (centres undefined)	1.3	0.33
c1ccc(COc2ccc(-c3csnn3)cc2)cc1	0.87	0.19
O=C(NCc1cccs1)Nc1cc(Cl)ccc1Cl	0.25	0.3
Cc1ccc(N(Cc2cc(=O)[nH]c3ccccc23)C(=O)c2ccco2)cc1	1.3	0.07
CCN(CC)C(=O)c1sc(NC(=O)c2cccc([N+](=O)[O-])c2)c(C#N)c1C	0.27	-0.41
CC(C)c1nnc(NC(=O)CSc2nc3ccccc3s2)s1	0.33	0.51
O=C(CSc1ncnc2sccc12)Nc1ccccc1F	0.25	-0.04
COc1ccc(C(=O)NCc2nc(C)c(C)s2)cc1OC1CCN(C(C)C)CC1	1.3	-1.5
CCOc1ccc(NC(=S)NC(=O)c2cncc(Br)c2)cc1	0.03	-0.69
Nc1nc(CSc2nc3ccccc3[nH]2)cs1	0.47	-0.65
Cc1ccc(NC(=O)c2nnn(CC(=O)Nc3ccccc3)c2N)cc1C	0.96	1.4
CC(C)OCCCNC(=O)c1ccc(NC(=O)C2=CSCCO2)cc1	0.01	-0.95
CCn1cc(Cl)c(C(=O)N2N=C3/C(=C/c4cccs4)CCCC3C2c2cccs2)n1 (centres undefined)	0.35	1.8
CCOC(=O)C1CCN(CC(=O)Nc2c(C(=O)OC)n(C)c3cccc(C)c23)CC1	0.15	-0.11
Cc1[nH]c(=O)[nH]c(=O)c1S(=O)(=O)Nc1cccc([N+](=O)[O-])c1C	0.01	1.4
S=C(Nc1ccccc1)Nc1cccc(Cl)c1Cl	1.1	0.58
CCC(=O)Nc1nnc(-c2ccc(Cl)s2)o1	1.4	-0.98
CC1=C(C#N)C(NC(=O)C(C)(C)C)(C(F)(F)F)C(=O)N1 (centres undefined)	0.71	1.9
CCCc1cc(=O)[nH]c(SCC(=O)c2cc(C)n(C(C)COC)c2C)n1 (centres undefined)	0.65	1.4
Cc1cc2ccccn2c1C(=O)c1ccc(Cl)c([N+](=O)[O-])c1	0.15	-0.69
CCC(=O)NC(=S)NNC(=O)c1ccc(O)cc1	0.6	-0.34
COCCCNC(=O)CCC(=O)NNc1nc2ccccc2c2nc(C)nn12	1.1	0.01
Brc1c(-c2ccc3c(c2)OCO3)nc2ncccn12	0.96	1.4
Cc1nnc(SCC(=O)NCC2CCCO2)n1-c1ccccc1 (centres undefined)	1.6	-1.4
CC1=C(C(=O)O)N2C(=O)C(NC(=O)c3nn(C)cc3[N+](=O)[O-])C2SC1 (centres undefined)	0.07	0.4
c1ccc2c(c1)CCNC2c1ccncc1 (centres undefined)	0.98	-0.82
O=C(NCCCN1CCc2ccccc2C1)C1CCN(S(=O)(=O)N2CCC3(CC2)OCCO3)CC1	0.14	1
NNC(=O)c1cccc(S(=O)(=O)Nc2cccc(C(F)(F)F)c2)c1	0.99	-1.9

Part of the list above, with two lines to a compound.
Results follow in this order: KCNQ2 pot | KCNQ2 pot baseline
> CCC(=O)NC(=S)NNC(=O)c1ccc(O)cc1
    0.6 | -0.34
> COCCCNC(=O)CCC(=O)NNc1nc2ccccc2c2nc(C)nn12
    1.1 | 0.01
> Brc1c(-c2ccc3c(c2)OCO3)nc2ncccn12
    0.96 | 1.4
> Cc1nnc(SCC(=O)NCC2CCCO2)n1-c1ccccc1 (centres undefined)
    1.6 | -1.4
> CC1=C(C(=O)O)N2C(=O)C(NC(=O)c3nn(C)cc3[N+](=O)[O-])C2SC1 (centres undefined)
    0.07 | 0.4
> c1ccc2c(c1)CCNC2c1ccncc1 (centres undefined)
    0.98 | -0.82
> O=C(NCCCN1CCc2ccccc2C1)C1CCN(S(=O)(=O)N2CCC3(CC2)OCCO3)CC1
    0.14 | 1

(further entries)
SMILES	KCNQ2 pot	KCNQ2 pot baseline
COc1ccc(C(=O)N2CCNC(=O)C2CC(=O)Nc2ccc(C)c(C)c2)cc1 (centres undefined)	1.1	-0.02
Fc1ccc(OCCCn2ccnc2)cc1	0.7	1.1
COc1ccc(CCN2CCCC(CN(C)Cc3cccc(OC)c3)C2)cc1 (centres undefined)	0.89	0.11
CCCCN(C(=O)c1ccc(C)o1)c1c(N)n(CCCC)c(=O)[nH]c1=O	0.97	-0.01
CC1=C(C(=O)Nc2ccccc2C)C2(CCCC2)C(C(N)=O)C(=O)N1 (centres undefined)	0.12	-0.43
CC(C)N(C)C1CCN(C(=O)Nc2ccc(Cl)cc2)CC1	0.61	-0.66
CC(=O)Nc1cccc2c1Cc1ccccc1-2	1.7	-0.7
Cc1cc(C)n(C(=O)CNC(=O)c2ccc3c(c2)OCCO3)n1	1.7	-3.3
COc1ccc(C(=O)NCCc2cccc(Cl)c2)cc1OC1CCN(C(C)=O)CC1	0.78	0.19
O=[N+]([O-])c1ccccc1S(=O)(=O)Nc1cccc(-c2ccc(N3CCOCC3)nn2)c1	0.02	-0.27
Cc1sc2ccccc2[n+]1CCC(C)S(=O)(=O)[O-] (centres undefined)	0.01	-0.01
CC(C(=O)O)n1c(-c2ccn[nH]2)n[nH]c1=S (centres undefined)	0.47	-1.1
COc1ccc(OCc2cccc(C(=O)O)c2)cc1	1.2	-1.5
Cc1ccnc(NC(=O)c2c(-c3ccccc3Cl)noc2C)c1	1.2	0.18
Cn1cc([N+](=O)[O-])c(C(=O)Nc2ccn(C34CC5CC(CC(C5)C3)C4)n2)n1	0.24	0.68
CC(C)Cc1cc(C(=O)N2CCC(N3CCC(C(=O)N4CCCC4)CC3)CC2)n[nH]1	1.2	0.01
CC1(C)C(=O)Nc2ccccc2N1C(=O)CSc1nnc2c(Cl)cc(Cl)cn12	0.27	0.19
CCn1c(=S)sc2c(=O)n(CC(=O)Nc3ccc(Cl)cc3)c(C)nc21	0.18	-1.8
COc1ccccc1NC(=O)CSc1nc(=O)n(CCN2CCOCC2)c2c1CCC2	0.4	0.62
O=C(COc1ccc2c(C(F)(F)F)cc(=O)oc2c1)Nc1ccc2c(c1)OCCO2	0.67	0
CC(=O)Nc1ccc(S(=O)(=O)NC(C)(C#N)C2CC2)cc1 (centres undefined)	0.01	0.02
Cc1sccc1/C=N/NC(=O)c1ccco1	1.6	0
CN1CCN(c2ncnc3c2cnn3-c2ccc(Cl)cc2)CC1	1.9	0.26
O=C(O)CSCC(=O)N1CCN(Cc2ccc3c(c2)OCO3)CC1	0.55	-0.79
Cn1cccc1-c1cc(C(=O)N/N=C/c2ccc(F)cc2)[nH]n1	0.78	-0.91
CSc1ccccc1NC(=O)CN(C)CC(=O)Nc1ccccc1F	1.2	0
CC(C)C(=O)Nc1ccccc1N1CCN(S(C)(=O)=O)CC1	0.17	1.6
CCOc1cc(/C=C2\SC(=NC)N(C)C2=O)cc(Cl)c1OC(C)=O	2.3	-1.2
Cc1ccc(NC(=S)N2CCCCCC2)cc1	0.98	0.51
O=C(NCc1ccc(Cl)cc1)c1cc(=O)[nH]c2ccccc12	0.01	-1.1
CC1CCc2cc(F)ccc2N1C(=O)c1cccnc1 (centres undefined)	0.03	-0.14
COC(C(=O)Nc1ccc(F)cc1F)c1ccccc1 (centres undefined)	0.44	-0.67
N#Cc1ccc(Oc2cccnc2)cc1C#N	0.06	1.2
O=C(CCc1nc2ccccc2c(=O)[nH]1)N1CCN(S(=O)(=O)c2ccc(Cl)c(C(F)(F)F)c2)CC1	0.38	-0.17
O=C(CSc1nnnn1C1CCCC1)Nc1ccccc1N1CCOCC1	0.09	-1.6
O=[N+]([O-])c1cnn2cc(Br)cnc12	0.01	2.6
COc1ccc(Cn2c(=O)[nH]c3cc(OC)c(OC)cc3c2=O)cc1	0.07	-1.2
Cc1cccc(C(=O)NNC(=O)c2ccccc2Br)c1	1.5	0.18
NC(=O)C1CCN(C2=C(NS(=O)(=O)c3ccc(Br)cc3)C(=O)c3ccccc3C2=O)CC1	0.24	0.39
[O-]/[N+](=C\c1ccccc1)[C@@H]1CCCC[C@@H]1/[N+]([O-])=C/c1ccccc1	0.37	-0.29
COC(=O)C(C)N1C(=O)S/C(=C\c2ccc(-c3ccc(C(=O)O)cc3C)o2)C1=O (centres undefined)	0.36	0.69
Cc1cc(C)c(S(=O)(=O)NC2CCN(Cc3ccccc3)CC2)c(C)c1	0.92	-1.1
O=S(=O)(c1cccc2nsnc12)N1CCN(c2ccccc2F)CC1	0.15	-2
CCOCC(=O)NCc1ccc2c(c1)OCO2	0.41	2.4
CCn1c(SCC(=O)NC2CC2)nnc1-c1cccc(OC)c1	0.65	-1.7
Cc1ccc(CSCC(=O)N(C)CC(=O)Nc2ccc(Cl)c(Cl)c2)cc1	3.9	-0.19
O=c1ccc2cc(S(=O)(=O)Nc3ccccc3F)ccc2o1	0.33	-0.58
NNC(=O)c1ccc(COc2ccc(Br)cc2)o1	1.7	0.01
Cc1ccc(S(=O)(=O)N(C)c2nc3ccccc3[nH]c2=S)cc1	5.6*	-1.2*
Cc1nc(SCCC(C)C)c([N+](=O)[O-])[nH]1	0.29	0.74
Cc1cc(C)c(OCC(=O)Nc2nnn(C)n2)c(Br)c1	1.1	-1
O=C(c1ccc([N+](=O)[O-])cc1)N(Cc1ccc(Cl)cc1Cl)N1C(=O)CCCC1=O	1.9	1.1
CC(=O)N(CN1C(=O)c2ccc([N+](=O)[O-])cc2C1=O)c1ccc(F)cc1	0.33	0.68
Cc1ccc(OCCC(=O)OCC(=O)Nc2ccc(F)cc2)cc1	0.28	0.61
CCOc1ccc(S(=O)(=O)N2CCN(C(=O)c3cccnc3)CC2)cc1	1.6	-2.7
O=S(=O)(NCc1ccncc1)c1ccccc1	0.23	-0.02
CCOC(=O)c1c(N)n(-c2ccc(N)cc2)c2nc3ccccc3nc12	1.4	-0.01
COC(=O)Cc1ccc(NC(=O)c2ccccc2Br)cc1	0.3	0.55
O=C(O)CCC(=O)Nc1ccc(Br)cc1C(=O)c1ccccc1	0.99	0.37
COc1ccc(S(=O)(=O)NCCC(=O)Nc2ccc(C)cc2)cc1	0.92	0.01

Continued.
SMILES	KCNQ2 pot	KCNQ2 pot baseline
CN(C)CCCN(C(=O)c1ccc([N+](=O)[O-])o1)c1nc2cc3c(cc2s1)OCO3	0.05	-0.11
Cc1cc(N2CCOCC2)nc2ccc(NC(=S)NC(C)C)cc12	0.35	-1.1
Cc1ccc(NC(=O)c2cc(-c3cc(Cl)ccc3O)n[nH]2)cc1C	0.8	-3.1
Cc1ccc(Nc2nc(-c3cccnc3)nc3ccccc23)cc1	0.02	0.42
CCCCN1C(N)=NC[C@@H]1Cc1ccccc1	0.86	-0.46
O=C1CC2(CCN(C(=O)c3ccccc3Br)CC2)Oc2ccccc21	0.02	-0.9
Cn1c(=O)c2c(ncn2CC(=O)N2CCOCC2)n(C)c1=O	1.2	-0.02
COc1ccc(S(=O)(=O)NC2CCCC2)cc1C(N)=O	0.95	-0.02
COCCCn1c(SCC(=O)NC(C)(C)C)nnc1-c1ccccc1	0.36	0.15
CC(NC(=O)c1ccccc1)c1nnc(SCC(=O)NC2=NCCS2)n1C (centres undefined)	0.94	0.57
CCOc1ccc(C(=O)Nc2nnc(C3=COCCO3)o2)cc1	2.9	-1.8
Cc1ccc(-c2csc(Nc3ccc(S(N)(=O)=O)cc3)n2)o1	0.09	-0.4
COc1ccc(OC)c(/C=N/NC(=O)c2cnccn2)c1	0.16	0.24
CCCCCOC(=O)c1cc(=O)[nH]c2ccccc12	1	-0.79
COc1cnc(SCc2ccc(Cl)c(Cl)c2)nc1Cl	0.55	0.6
CC(=O)Nc1ccc2c(c1)nc(C)n2Cc1ccccc1	1.4	0.33
CC(=O)c1cnc(N2CCCCC2)nc1C	1.6	-0.01
C=CCN1C(=O)CSC1=Nc1ccc(C(=O)O)cc1	0.81	-1.4
CCOCCCNC(=O)Cc1cc(=O)[nH]c(=O)[nH]1	0.25	0.19
COc1ccc(C(=O)CCC(=O)Nc2ccc(N3CCCCC3)cc2)cc1OC	1.4	0.02
CCCCn1c(SCC(N)=O)nc2c(sc3ccccc32)c1=O	0.35	0.52
COC(=O)c1sc2ccccc2c1-n1cccc1C(=O)C(=O)Nc1ccc(F)cc1	1.9	-0.66
CC1Oc2cc3oc4c(O)c(O)ccc4c(=O)c3c(O)c2C1(C)C (centres undefined)	5.4*	1.1*
O=C(COC(=O)c1ccccc1[N+](=O)[O-])NCCCc1ccccc1	0.11	0.04
CCn1cc(C(=O)Nc2ccc(F)c(F)c2)cn1	1.4	-0.22
Cc1nc2c3ccccc3nc(SCC(=O)N3CC(C)CC(C)C3)n2n1 (centres undefined)	0.41	-0.57
Cc1ccc(C(=O)COC(=O)CCC(=O)Nc2cc(Cl)ccc2Cl)cc1[N+](=O)[O-]	0.2	0.04
COc1ccc2[nH]c(C)c(CCNC(=S)Nc3cc(C)cc(C)c3)c2c1	0.87	0.18
COc1ccc(-c2nc3ccccc3o2)cc1NC(=O)CSc1ccc(Cl)cc1	1.4	-0.09
Cc1ccc(CCN2CC(C(=O)NCCCN3CCCCC3)CC2=O)cc1 (centres undefined)	0.06	2.2

Among those listed so far, these contain a cyano group:
SMILES	KCNQ2 pot	KCNQ2 pot baseline
CCN(CC)C(=O)c1sc(NC(=O)c2cccc([N+](=O)[O-])c2)c(C#N)c1C	0.27	-0.41
CC1=C(C#N)C(NC(=O)C(C)(C)C)(C(F)(F)F)C(=O)N1 (centres undefined)	0.71	1.9
CC(=O)Nc1ccc(S(=O)(=O)NC(C)(C#N)C2CC2)cc1 (centres undefined)	0.01	0.02
N#Cc1ccc(Oc2cccnc2)cc1C#N	0.06	1.2

More entries follow:
SMILES	KCNQ2 pot	KCNQ2 pot baseline
Cc1ccccc1Oc1nc2ccccc2n2cnnc12	0.84	-0.39
Cc1cc(C(C)(C)C)ccc1OCCN1CCCC1	1.6	0.19
Cc1ccc2nc3c(cc2c1)c(NC(=O)C1CCCO1)nn3CC(C)C (centres undefined)	0.28	0.91
Cn1cc(CN2CCC(n3nccc3NC(=O)CCc3ccccc3)CC2)cn1	0.87	-0.57

Compound activity from PubChem BioAssay.
